Assay outcomes deposited in PubChem by Johns Hopkins Ion Channel Center.
KCNQ2 block = KCNQ2 channel blockers in CHO-K1 cells – cell-based, FluxOR thallium flux, B-score, primary screen (AID 2156); 20 min; stronger effect = lower value; only compounds with negative scores are shown here; some inactives read as strong as hits; 1.1% of 310,000 active; B-score at 10 µM; O88943;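 active = fluorescence ratio B-score at most minus 3 library SDs, with starting brightness B-score within 2 library SDs, cut at about -5.5 in these data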
Target sequence (O88943 whole entry, looked up): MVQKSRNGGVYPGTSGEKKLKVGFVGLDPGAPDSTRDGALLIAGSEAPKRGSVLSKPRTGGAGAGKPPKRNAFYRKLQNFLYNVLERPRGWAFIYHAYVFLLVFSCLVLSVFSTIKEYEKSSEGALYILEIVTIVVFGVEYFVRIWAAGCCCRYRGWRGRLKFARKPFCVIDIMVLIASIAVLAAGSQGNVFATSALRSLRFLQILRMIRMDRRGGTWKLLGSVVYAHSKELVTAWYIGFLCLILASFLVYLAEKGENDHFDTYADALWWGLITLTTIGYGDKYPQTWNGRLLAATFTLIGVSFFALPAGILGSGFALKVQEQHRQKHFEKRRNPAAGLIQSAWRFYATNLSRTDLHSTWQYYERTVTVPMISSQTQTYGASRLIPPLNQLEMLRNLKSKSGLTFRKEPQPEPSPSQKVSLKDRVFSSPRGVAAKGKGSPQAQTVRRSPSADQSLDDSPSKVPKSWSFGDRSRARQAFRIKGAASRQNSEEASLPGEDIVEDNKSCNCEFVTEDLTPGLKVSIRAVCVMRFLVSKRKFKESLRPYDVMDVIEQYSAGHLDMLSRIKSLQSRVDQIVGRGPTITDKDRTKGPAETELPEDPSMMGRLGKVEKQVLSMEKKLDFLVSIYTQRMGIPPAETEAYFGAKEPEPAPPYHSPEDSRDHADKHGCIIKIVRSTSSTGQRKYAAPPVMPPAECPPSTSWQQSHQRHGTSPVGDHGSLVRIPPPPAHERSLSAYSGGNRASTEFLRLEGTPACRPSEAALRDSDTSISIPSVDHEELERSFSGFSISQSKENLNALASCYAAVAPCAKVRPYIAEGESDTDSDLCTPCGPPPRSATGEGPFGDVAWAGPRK
KCNQ2 block baseline = also measured in KCNQ2 block; calls as there; B-score; measured here: initial fluorescence intensity artifact check;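 brightness before thallium and not channel activity; 0 = typical well and far values either way flag optical interference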
Active calls of the source: *; i = inactive. Not all compounds are listed (hit frequency here may not be typical).

entry	Structure	KCNQ2 block baseline	KCNQ2 block
1	CC(C)(C)C(=O)NN=C1CCC(c2ccccc2)CC1 (configuration not stated)	1.1	i
2	COc1ccc(-n2c(SCC(=O)Nc3ccc([N+](=O)[O-])cc3OC)nc3ccccc32)cc1	-0.28	i
3	FC(F)(F)c1ccc(CN2C[C@@H]3C(c4ccccc4)C4(c5ccccc5)CC3(C4)[C@H]2c2ccccc2)cc1 (some centres not stated)	0.63	i
4	COc1ccc(Cn2nnnc2CN2CCCCCC2)cc1	1.2	i
5	O=c1[nH]c(C2CCN(S(=O)(=O)c3ccccc3)CC2)nc2c1nnn2Cc1c(F)cccc1Cl	-1.8	i
6	O=C(COC(=O)c1ccccc1C(=O)c1ccccc1)Nc1cccc([N+](=O)[O-])c1	0.25	i
7	CCOC(=O)c1ccc(CNC(=O)C(Cc2c[nH]c3ccccc23)NC(C)=O)o1 (configuration not stated)	1.2	i
8	O=C(Nc1ccccc1N1CCCC1)c1ccc(F)c(S(=O)(=O)N2CCOCC2)c1	-1.1	i
9	CCCCNC(=O)C1CCCN1C(=O)Nc1ccccc1 (configuration not stated)	-1.9	i
10	CCOC(=O)c1c(NC(=O)Nc2ccc(F)cc2)sc2c1CCN(C)C2	1.3	i
11	CCOC(=O)c1c(C)[nH]c2ccc(O)cc12	0.86	i
12	O=C(c1ccco1)N1CCN(S(=O)(=O)c2cccs2)CC1	-1.1	i
13	O=C(Nc1ccccc1N1CCOCC1)c1ccc2ccccc2n1	0.2	i
14	CC(C)NS(=O)(=O)c1ccc(NC(=O)CCc2ccccc2)cc1	0.94	i
15	Cc1cccc(NC(=S)N2CCCN(c3ncccc3[N+](=O)[O-])CC2)c1	0.2	i
16	NNC(=O)c1nnn(-c2nonc2N)c1CN1CCc2ccccc2C1	0.18	i
17	Fc1ccc(-c2nnc3ccc(N4CCc5ccccc5C4)nn23)cc1	-1.8	i
18	Cc1ccc(OCC(=O)Nc2ccc(-c3nnc(-c4ccco4)o3)cc2)cc1	5.6	i
19	O=C(Nc1ccccc1N1CCOCC1)c1ccc(Cl)c(S(=O)(=O)NCc2ccco2)c1	0.18	i
20	Cc1ccc(S(=O)(=O)NCc2csc(-c3cccs3)n2)cc1	-1.3	i
21	CCCCCCCNC(=O)C1(CC2CC(c3cccc(Br)c3)=NO2)CCN(C(=O)OC(C)(C)C)CC1 (configuration not stated)	1.5	i
22	COCCN(C(=O)COC(=O)c1cc2ccccc2cc1O)c1c(N)n(Cc2ccccc2)c(=O)[nH]c1=O	0.16	i
23	Fc1ccc(NC(=S)N2CCCC(c3ccccc3)=N2)cc1	0.07	i
24	Cc1c(NC(=O)c2coc(=O)c(Br)c2)c(=O)n(-c2ccccc2)n1C	2.7	i
25	CC(C)c1ccc2oc(=O)cc(CN3CCCCC3)c2c1	-0.13	i
26	CCOC(=O)CSc1nc2sc3c(c2c(=O)n1-c1ccc(OC)cc1)CCN(C)C3	1.4	i
27	COC(=O)C1C(O)=CC(=O)CC1C (configuration not stated)	-0.95	i
28	CCOC(=O)C1=C(C)OC(N)=C(C#N)C1c1cc(Cl)c(OCC(N)=O)c(OC)c1 (configuration not stated)	-0.1	i
29	Nc1nnc(CC(=O)N/N=C/c2ccc(-c3ccc(F)cc3)o2)s1	0.04	i
30	COc1cc(/C=C/C(=O)OCC(=O)N2CCCCCC2)ccc1OCC#N	0.02	i
31	O=S1(=O)CC(N2CCCCC2)C(N2CCCCC2)C1 (configuration not stated)	0.37	i
32	c1ccc(Nc2nnc(-c3cccc4ccccc34)o2)cc1	-0.01	i
33	O=C(NCCC(=O)N1CCOCCOCCOCCOCC1)OCc1ccccc1	-0.28	i
34	COC(=O)c1ccc(NC(=O)Cn2c([N+](=O)[O-])cnc2C)cc1	-0.47	i
35	O=[N+]([O-])c1cc([N+](=O)[O-])c(Oc2c(F)ccc(F)c2F)cc1NN1CCCCC1	-0.07	i
36	COc1cccc(C(=O)N2CCC(C(=O)NCc3ccco3)CC2)c1	-0.15	i
37	OCC1(Cc2ccccc2C(F)(F)F)CCN(Cc2cccc3cnccc23)CC1	0.67	i
38	CCn1c(=O)c(C(=O)Nc2ccccc2F)c(O)c2ccccc21	-1.3	i
39	CC(C)C[C@H](NC(=O)c1nc[nH]c1C(=O)NCCCCCNC(=O)OC(C)(C)C)C(=O)OC(C)(C)C	-0.7	i
40	CCN(CC)c1ccc(CNc2nc3ccccc3n2CCN2CCOCC2)cc1	-1.8	i
41	Cc1c(NC(=O)C(C)OC(=O)/C=C/c2ccc3c(c2)OCO3)c(=O)n(-c2ccccc2)n1C (configuration not stated)	0.72	i
42	Cc1cccc(NC(=S)N/N=C/c2ccc(Cl)c([N+](=O)[O-])c2)c1	1.4	i
43	Cc1nn(C)c(C)c1S(=O)(=O)N(CC(=O)N1CCc2ccccc21)c1ccc(C(C)C)cc1	-0.74	i
44	O=C(OCc1ccc(F)cc1)c1cc2ccccc2cc1O	-0.06	i
45	COc1ccc(N2CCN(CCNC(=O)Nc3ccc(Cl)cc3)CC2)cc1	0.95	i
46	Cc1cc(-c2ccccc2)nc(Oc2ccc(C(C)(C)C)cc2)c1S(C)(=O)=O	-0.04	i
47	COc1ccc(N2CCN(CCCn3c(=S)[nH]c4ncccc4c3=O)CC2)cc1	-0.37	i
48	CCC(C)NC(=O)N[C@@H](CCSC)C(=O)OC (some centres not stated)	-1.2	i
49	O=C(NC1CCCC1)C1CCCN1C(=O)Nc1ccc(Cl)cc1 (configuration not stated)	-0.63	i
50	O=C(OCC(=O)N1CCN(C(=O)COC(=O)c2ccc(O)cc2O)CC1)c1ccc(O)cc1O	1.4	i
51	O=C(NNC(=O)c1ccccc1O)c1ccc(Br)cc1	1.2	i
52	Cc1cc(N2C(=O)C3C4CCC(C4)C3C2=O)no1 (configuration not stated)	-0.09	i
53	Cc1oc(C(=O)O)cc1COc1ccccc1Cl	1.6	i
54	N#Cc1c(Sc2ncc(C(F)(F)F)cc2Cl)nsc1C/C=N\OCc1c(F)cccc1Cl	-0.33	i
55	Cc1cccc(C)c1NC(=O)CSc1nnc(-c2ccccc2)n1Cc1ccc2c(c1)OCO2	-0.74	i
56	CCOC(=O)CCC(NC(=O)c1ccc(NCN2C(=O)c3ccccc3C2=O)cc1)C(=O)OCC (configuration not stated)	-0.1	i
57	O=C(Sc1ccc(Cl)cc1)c1ccccn1	-0.11	i
58	COc1ccc(CCN2CN(S(=O)(=O)c3ccccc3)c3nc4ccccc4nc32)cc1OC	1.6	i
59	COc1ccc(N2C(=O)CN=C2Nc2nc(C)cc(C)n2)cc1	1.8	i
60	C=CCN1C(=O)NC2(CCCCC2)C1=O	1.6	i

Following part
entry	Structure	KCNQ2 block baseline	KCNQ2 block
61	Cc1ccccc1Nc1c(-c2ccc(N3CCOCC3)cc2)nc2cnccn12	0.33	i
62	CCCCCOC(=O)C1[C@H]2C(=O)N(Cc3cccs3)C[C@]23C=C[C@H]1O3 (some centres not stated)	0.35	i
63	NS(=O)(=O)c1ccc(NC(=O)CSC2CCCCC2)cc1	0.52	i
64	O=C(NCCc1ccc(Cl)cc1)c1ncn[nH]1	-2.9	i
65	Cc1cccc(NC(=S)NC2CCCC2)n1	-0.69	i
66	CCOC(=O)CC1C(=O)NCCN1C(=O)c1c(F)cccc1F (configuration not stated)	1.9	i
67	O=C(CCn1cnnn1)Nc1ccccc1	-0.32	i
68	Cn1c(=O)c2c(nc(Br)n2CCCc2ccccc2)n(C)c1=O	1.4	i
69	CN1CC=C2C(C#N)=C(N)C(C#N)(C#N)[C@H](c3cccs3)[C@H]2C1	1.8	i
70	O=C(NCCCn1ccnc1)c1ccc2ccccc2c1	2.6	i
71	Cc1nnc(SCC(=O)c2cc(C)n(-c3ccc4c(c3)OCO4)c2C)s1	0.83	i
72	S=c1[nH]nc(-c2cccnc2)n1/N=C/c1ccc(Br)s1	0.24	i
73	Fc1ccc(N=c2ssnc2Cl)c(F)c1	-0.88	i
74	CC1(C)NC(=O)N(CCCCOc2ccc(Cl)cc2C=O)C1=O	-0.8	i
75	O=c1c2sccc2n(Cc2ccc(F)cc2)c(=O)n1-c1ccc(F)cc1	0.32	i
76	O=S(=O)(Nc1nc(SCc2ccc(Cl)cc2)n[nH]1)c1ccccc1	0.7	i
77	CCN1CCN(S(=O)(=O)c2ccc3c(c2)OCCO3)CC1	0.68	i
78	C=CCSC1=C(C#N)C(c2ccccc2Cl)C(C(=O)c2cccs2)C(O)(C(F)(F)F)N1 (configuration not stated)	1.5	i
79	CCCc1ccc(S(=O)(=O)NCc2nnc(SC)n2C)cc1	-0.62	i
80	COc1ccccc1C1CC(=O)Nc2cc(C)c(C)cc21 (configuration not stated)	0.92	i
81	Cc1ccc(CN2CCc3c(OCC(=O)Nc4cc(C)ccc4C)cccc3C2=O)cc1	-0.11	i
82	Cc1nc2cc(-c3ccccc3)nn2c(C)c1CCC(=O)N1CCN(c2ccccc2)CC1	-1.6	i
83	Cn1cc(/C=C/C(=O)c2ccccc2)c2ccccc21	-0.28	i
84	CN1CCN(CC(=O)NN(Cc2ccccc2)c2ccccc2)CC1	0.09	i
85	O=C(c1ccco1)N1CCN(c2c([N+](=O)[O-])nn(-c3cccc(Cl)c3)[n+]2[O-])CC1	-0.45	i
86	CCOC(=O)C1=NNC2(c3ccccc3)C(=O)N(c3cccc(Br)c3)C(=O)C12 (configuration not stated)	-0.85	i
87	COc1ccc2[nH]c(C(=O)N/N=C/c3ccc(OC)c(O)c3)cc2c1	1.1	i
88	COc1ccc(-c2cc(C(F)(F)F)nc(S(=O)(=O)CCCC(=O)Nc3cccc(O)c3)n2)cc1OC	-0.7	i
89	COc1ccc(C(=O)Nc2nc3ccccc3s2)cc1OC	-1	i
90	Cc1cccc(N2CCN(C(=O)c3csc4ccccc34)CC2C)c1 (configuration not stated)	-2.1	i
91	COc1ccc(NC(=O)c2cc3c(=O)n(C)c4ccccc4c3n2C)cc1OC	1.1	i
92	O=C(/C=C/c1ccc(Cl)cc1Cl)NCCSc1ccccc1	-0.27	i
93	COc1ccc(NS(=O)(=O)c2cn(C)nc2C)cc1	-0.14	i
94	CCCC1=Nc2cc(C(=O)NCc3ccco3)ccc2Sc2ccccc21	-1.6	i
95	COc1ccccc1N1CCN(C(=O)c2cc(-c3ccc(Cl)cc3)on2)CC1	10	i
96	COc1ccc(OC)c(NC=C2C(=O)OC3(CCCCC3)OC2=O)c1	-0.46	i
97	CCC(O)c1cc2c(cc1NC(=O)c1cccs1)OCCO2 (configuration not stated)	-1.5	i
98	CC(C)(C)NS(=O)(=O)c1ccc(NC(=S)NC(=O)C2CCC2)cc1	0.02	i
99	Fc1ccc(N2CCN(c3ccc4c(C(F)(F)F)cc(C(F)(F)F)nc4n3)CC2)cc1	-1	i
100	CN1CCN(C(=O)c2ccccc2N(Cc2ccccc2)S(C)(=O)=O)CC1	-1.4	i
101	C=CCOc1c(Br)cc(CNn2nnnc2N)cc1OCC	-3.2	i
102	COc1ccc(CCn2ccc(O)c(Cc3ccc(Cl)cc3)c2=O)cc1OC	-0.03	i
103	CCCCN1C(=O)N(c2ccc(Cl)cc2)C(C)(O)CC1(C)C (configuration not stated)	0.41	i
104	COC(=O)c1ccc(Cn2cc(/C=C\[N+](=O)[O-])c3ccccc32)o1	2.1	i
105	CCN(CC)CCNC(=O)c1ccc2c(=O)n(CCc3ccccc3)c(=O)[nH]c2c1	-1.2	i
106	O=C(CC1SC(=Nc2ccccc2)N(Cc2ccccn2)C1=O)Nc1cccc(Cl)c1 (configuration not stated)	0.78	i
107	O=C(CCc1c[nH]c2ccccc12)NCc1ccncc1	0.26	i
108	O=C(Nc1ccc(Br)cc1Cl)c1cnccn1	0.13	i
109	CCOc1ccccc1NC(=O)CSc1nnc(CCC(=O)Nc2ccccc2F)n1C	0.38	i
110	CCC(CC)C(=O)N(CCc1ccc(OC)cc1)Cc1nc2ccccc2c(=O)[nH]1	-0.12*	-9.5*
111	NC(=S)N/N=C/c1ccc(-c2cccc([N+](=O)[O-])c2)o1	4	i
112	Cc1ccc(C)c(NC(=O)CN(C)C(=O)CSC(C)C(=O)Nc2cc(C)on2)c1 (configuration not stated)	1.9	i
113	O=C(COCc1cc(-c2cccs2)on1)NC1CCCCC1	0.13	i
114	Cc1ccc(N2CC(C(=O)N3CCC4(CC3)CC(=O)c3ccccc3O4)CC2=O)cc1 (configuration not stated)	-0.74	i
115	CC(Nc1[nH]c(=O)n(C)c(=O)c1N=O)c1ccccc1 (configuration not stated)	0.5	i
116	CN1/C(=C\C(=O)CSc2cccc[n+]2[O-])C(C)(C)c2ccccc21	-0.48	i
117	CCOC(=O)c1ccc(NC(=O)Nc2ncccc2C)cc1	-1.4	i
118	O=S(=O)(c1ccc(Br)cc1)N1CCCC1	0.87	i
119	O=C(NCC(=O)N(CCN1CCOCC1)C(C(=O)NC1CCCC1)c1cccnc1)c1cccs1 (configuration not stated)	1	i
120	Cc1c(C(=O)N2CCN(c3ccccn3)CC2)sc2ncnc(N3CCN(c4ccccc4)CC3)c12	0.96	i
